Screening results as filed in PubChem.
Vaccinia Venus: inhibitors of vaccinia virus (Venus reporter) | Vaccinia virus Venus reporter expression, fluorescence | Potency, µM (doses to about 36.5 µM), for the others: top-dose activity change, negative = inhibition, actives largely listed as inhibitors | hit rate 0.46% among 330,000 | AID 720580; active means well fitted inhibition curve with a large enough effect; inconclusive means small, poorly fitted or top-dose-only effect; inactive means no such curve, though single readings can be large or run the other way; tested in A549 cells; note: nearly all actives have a fitted effect of over 30% in size; inactives centre near -10
VACV mCherry inh: inhibitors of vaccinia virus infection (mCherry reporter signal); Vaccinia virus mCherry reporter infection, fluorescence; about a quarter of the inactives have no number; Potency, µM (top dose mostly 36.5 µM), for inactives: top-dose activity change, negative = inhibition, most hits filed as inhibitors; hit rate 0.63% among 310,000; active = well fitted inhibition curve with a large enough effect; inconclusive = small, poorly fitted or top-dose-only effect; inactive = no such curve, though single readings can be large or run the other way; tested in A549 cells; note: nearly all actives have a fitted effect of over 35% in size; inactives centre near -10
* marks the source's active call; other numbers are inactive results; i = inactive; ? = inconclusive; · = no result given; & = joins results of further samples; [ ] = remark or other dose. % is set by controls: 0 for no effect and ±100 for the full control effect; potency is the fitted concentration of half-maximal effect. Outcome played no part in choosing rows; about 0.82% have a hit in one of these screens.

entry	molecule	Vaccinia Venus	VACV mCherry inh
1	CC(C)CNc1ncnc2onc(-c3ccc(Cl)cc3)c12	0.5%	1.0%
2	Cc1ccc(OCc2ccc(C(=O)NCC3CCCO3)cc2)cc1 (stereo not drawn)	-13.9%	-12.7%
3	COc1ccc([C@H]2CC(=O)C=C(c3ccccc3Oc3ccccc3)C2)cc1	-17.9%	-8.4%
4	COc1ccc(NC(=O)c2cc(S(=O)(=O)N3CCOCC3)ccc2N2CCOCC2)cc1	-10.8%	i
5	c1ccc(Oc2cccc(NC3=NCCC3)c2)cc1	?	i
6	Cc1ccc(C(=O)N(C)CCOc2ccccc2)cc1S(=O)(=O)N1CCOCC1	-12.8%	-26.6%
7	COC(=O)c1cc(=O)n(-c2ccc(C(F)(F)F)cc2)[nH]1	-4.9%	-9.6%
8	CCn1cc(C(=O)NCc2ccccc2OC)c(=O)c2ccc(C)nc21	0.5%	-8.4%
9	Cc1ccc(C(NC(=O)Cc2cccs2)C(=O)Nc2ccc(C(C)C)cc2)cc1 (stereo not drawn)	-25.6%	-4.9%
10	C=CCN(C(=O)c1csnn1)C(C(=O)NC1CCCCC1)c1ccccc1 (stereo not drawn)	0.3%	-5.9%
11	CC(=O)N(C)c1nc(-c2ccc(Cl)cc2)cs1	-12.1%	-9.8%
12	Cc1ccc([C@H]2N[C@]3(CCCN(Cc4cccn4C)C3=O)[C@H]3C(=O)N(Cc4ccccc4)C(=O)[C@@H]23)cc1	-26.7%	-11.0%
13	COc1ccc(S(=O)(=O)N2CCC(C(=O)N3CCN(c4ccccc4OC)CC3)CC2)cc1	?	·
14	CCn1c(=O)c2cc(C(=O)NCC(OC)OC)sc2c2ccccc21	-20.4%	i
15	O=C(NC(=S)NCC1CCCO1)c1ccccc1Br (stereo not drawn)	-12.2%	-15.2%
16	CC(C)NC(=O)C(c1ccc(F)cc1)N(Cc1ccco1)C(=O)CCC(=O)Nc1ccccn1 (stereo not drawn)	-12.6%	i
17	COc1ccc(S(=O)(=O)N2CCCCC2)cc1NC(=O)Cn1c(=O)cnc2ccccc21	-10.0%	-7.5%
18	ON1C(c2ccc(Cl)cc2Cl)N(O)[C@H]2CCCC[C@H]21 (stereo partly drawn)	-21.0%	-11.8%[1.46 µM]
19	Cc1onc(-c2ccccc2Cl)c1C(=O)N1CCN(c2cccc(Cl)c2)CC1	-27.9%	-16.7%
20	CCC(C(=O)NC(C)(C)C)n1c(C(c2ccccc2)c2ccccc2)nc2ccccc21 (stereo not drawn)	-24.2%	-24.6%
21	COc1ccc(F)cc1S(=O)(=O)N1CCN(Cc2ccc3c(c2)OCO3)CC1	-26.4%	·
22	O=C(c1ccco1)c1nc2c(n1O)CCCCC2	-11.3%	·
23	Cc1sc2nc(SCC(=O)Nc3cccc(C(=O)O)c3)[nH]c(=O)c2c1C	2.7%	-8.3%
24	COc1ccc(/C=N/N(C)C2=NS(=O)(=O)c3ccccc32)cc1OC	-20.3%	-6.5%
25	Cc1sc2c(c1C)CN(Cc1ccncc1)CN2C(=O)c1ccco1	-5.8%	-7.1%
26	CC(=O)Nc1cc2oc3ccccc3c2cc1[N+](=O)[O-]	-5.9%	-6.4%
27	O=S(=O)(Cc1nnnn1-c1ccc(Br)cc1)c1ccccc1	-6.8%	i
28	O=C(c1ccc(OC2CCN(CCc3ccccc3)CC2)cc1)N1CCCC1	-14.0%	i
29	Cc1ccccc1NC(=O)c1cnn(-c2ccccc2)c1C	-27.2%	-12.9%
30	CCc1nnc(NS(=O)(=O)c2ccc(NC(=O)c3ccc(Cl)cc3)cc2)s1	6.0%	-3.3%
31	Cc1cc(NC(=O)CSCC(=O)Nc2cc(C(F)(F)F)ccc2N2CCCCC2)no1	-7.8%	i
32	O=C(Nc1ccc(C(=O)O)cc1)/C(=C\c1ccc2c(c1)OCO2)NC(=O)c1ccc(Br)o1	7.9%	7.7%
33	C=CCN1c2ccccc2[C@]23C[C@@H](C(=O)OC)N(C(=O)c4cc(C)oc4C)C2=NC(C(=O)OC)=C(C(=O)OC)[C@H]13	-19.9%	-5.1%
34	CCCS(=O)(=O)NC(=O)C1(C)CCN(C(=O)c2ccc3ccccc3n2)C1 (stereo not drawn)	-7.5%	-2.0%
35	Cc1cccc(-n2ncc3c(Nc4ccc(F)cc4)ncnc32)c1	-27.8%	i
36	CC(C)C1N(C(N)=S)N=CC1(C)C (stereo not drawn)	-7.5%	i
37	CCCCOC(=O)CSc1nnc(-c2ccccc2)o1	10.9%	-2.1%
38	CCC1CN(C(=O)N2CCC(C(=O)O)CC2)c2cc(C)ccc2O1 (stereo not drawn)	-3.5%	-6.2%
39	O=C1Nc2ccccc2-n2nnnc2C1N1CCN(c2ccc(C(F)(F)F)cc2[N+](=O)[O-])CC1 (stereo not drawn)	?	-11.8%
40	O=C(Cc1cccc2ccccc12)N/N=C/C=C/c1cccc([N+](=O)[O-])c1	-19.2%	?
41	COc1ccc(C23NCCN2C(=O)c2ccccc23)cc1 (stereo not drawn)	-1.3%	i
42	Cc1[nH]c2ccccc2c1CCN(Cc1cccnc1)C(=S)Nc1cccc(F)c1	-19.8%	-29.3%
43	CCc1nc2ccc(C(=O)N3CCC(O)(Cc4ccccc4)CC3)cn2c1N(C)C(=O)Cc1ccccc1	18.5%	19.1%
44	O=C(c1cccc(OC2CCN(Cc3cccc(OCCO)c3)CC2)c1)N1CCCC1	-18.3%	i
45	COC(=O)C(C)Oc1cc(C)cc2oc(=O)c3c(c12)CCCC3 (stereo not drawn)	-17.3%	-23.0%
46	Cc1cc(C(=O)COc2ccc(C#N)cc2)c(C)n1CC1CCCO1 (stereo not drawn)	18.1%	i
47	COc1ccc(/C=C/C(=O)NCC(=O)N/N=C/c2cc(Br)ccc2OCc2ccccc2)cc1	-10.7%	·
48	CS(=O)(=O)N(CC(=O)N1CCCC1)c1ccc(F)cc1	-11.4%	i
49	O=C(COc1ccccc1C(=O)Nc1ccccc1)Nc1cccc(Cl)c1	-27.7%	-6.6%
50	Cc1cc(-c2nnc(CCC(=O)NCC(C)c3ccccc3)o2)no1 (stereo not drawn)	-2.0%	-2.4%

New compounds follow.
entry	molecule	Vaccinia Venus	VACV mCherry inh
51	COc1ccc(NC(=O)c2onc(C)c2Cl)cc1OC	-6.3%	18.6%
52	O=C(NCCSc1ccc(Br)cc1)c1ccc2nc[nH]c2c1	-26.6%	-19.1%
53	COc1cc(=O)n2c(c1C(=O)NCc1ccco1)CCN(Cc1c(F)cccc1F)CC2	-14.8%	i
54	Cc1ccc(OCCCN2CCOCC2)cc1	-17.5%	i
55	CC(=O)Nc1ccc(S(=O)(=O)N(C)CC(=O)OCC(=O)N2CCCCCC2)cc1	1.0%	i
56	Cc1cc(C)cc(C(=O)Nc2ccc(N3CCN(S(C)(=O)=O)CC3)cc2)c1	4.2%	-7.6%
57	COc1ccc(NS(=O)(=O)/C=C/c2ccc(OC)c(OC)c2)cc1	-7.1%	-15.3%
58	CC12CCC(C(=O)N(NC(=O)c3ccccc3O)C1=O)C2(C)C (stereo not drawn)	-16.4%	-9.1%
59	Cc1ccc(NC(=O)NCc2cccn2Cc2ccccc2)cc1F	-5.8%	-0.4%
60	O=P(NS(=O)(=O)c1ccc(Br)cc1)(Oc1ccccc1)Oc1ccccc1	1.3%	i
61	Cc1ccc(C)c(-c2nnc(NC(=O)c3ccc4c(c3)OCCO4)o2)c1	-2.9%[7.34 µM]	-3.9%[7.34 µM]
62	CCN(CC(=O)Nc1ccc(NC(C)=O)cc1)C(=O)c1cc(CN2C(=O)c3ccccc3C2=O)ccc1OC	-10.4%	-15.0%
63	Cc1cc(-c2nc3ncccc3o2)ccc1N	-3.0%	-20.0%
64	COc1ccc(-c2noc(N3CCC(C(=O)Nc4ccc(OC)c(OC)c4)CC3)n2)cc1	?	-13.2%&-6.3%
65	NS(=O)(=O)c1ccc(CCNC(=O)c2ccc([N+](=O)[O-])cc2[N+](=O)[O-])cc1	0.6%	-1.2%
66	CCCn1nc(C(=O)Nc2ccc(S(=O)(=O)Nc3ncccn3)cc2)c2ccccc2c1=O	-9.5%	5.0%
67	CC1CC(C)CN(C(=O)CCNS(=O)(=O)c2ccc3c(c2)CCC(=O)N3)C1 (stereo not drawn)	-16.9%	i
68	COc1cc(C)nc(N2CCCC(C(=O)Nc3cccc(Cl)c3Cl)C2)n1 (stereo not drawn)	-0.9%	?
69	CCOc1ccc(OCCC(=O)N(CCC(C)C)c2c(N)n(Cc3ccccc3)c(=O)[nH]c2=O)cc1	-13.4%	-6.2%
70	O=S(=O)(NCCc1csc(-c2cccc(F)c2)n1)c1cc(F)ccc1F	-3.4%	-14.8%

Ordered by number of heavy atoms (highest first): part of the list above.
entry	molecule	Vaccinia Venus	VACV mCherry inh
39	O=C1Nc2ccccc2-n2nnnc2C1N1CCN(c2ccc(C(F)(F)F)cc2[N+](=O)[O-])CC1 (stereo not drawn)	?	-11.8%
60	O=P(NS(=O)(=O)c1ccc(Br)cc1)(Oc1ccccc1)Oc1ccccc1	1.3%	i
70	O=S(=O)(NCCc1csc(-c2cccc(F)c2)n1)c1cc(F)ccc1F	-3.4%	-14.8%

(next part)
entry	molecule	Vaccinia Venus	VACV mCherry inh
71	Cc1cc(C)cc(NC(=O)NCc2c(-c3ccccc3)noc2C)c1	-15.8%	?
72	O=C(Nc1ccccc1)N(CCc1nc2ccccc2[nH]1)C1CCCC1	-7.3%	-14.1%
73	C=CCc1c(C)c(C#N)c2nc3ccccc3n2c1N1CCCCC1	1.0%	i
74	COCCN(C(=O)CCC(=O)Nc1cc(C)on1)C(C(=O)NC(C)(C)C)c1ccccc1Cl (stereo not drawn)	-10.7%	i
75	Cc1ccc(NC(=O)CSc2nnc(Cc3csc(C)n3)o2)c(C)c1	-16.2%	i
76	COc1ccccc1-c1nccc(NCc2cnc(C)cn2)n1	-5.1%	-7.3%
77	CCN(c1ccc(NC(=O)COC(=O)CCc2cc(OC)c(OC)c(OC)c2)cc1)C(C)C	-3.4%	-5.7%
78	COc1ncnc2c1ncn2CCCN(C)CCc1ccccn1	-4.9%	i
79	COc1ccc(S(=O)(=O)N(CC(=O)NCCSc2ccccn2)c2ccccc2)cc1	-25.7%	-22.3%
80	COc1ccccc1CNC(=O)C(NC(=O)c1ccc(C)cc1)C(C)C (stereo not drawn)	-6.5%	i
81	CC(=O)Nc1ccc(NC(=O)C(C)Sc2n[nH]c(-c3ccc(C)cc3)n2)cc1 (stereo not drawn)	-4.7%	-20.7%
82	COc1ccc(CNc2nc(-c3ccco3)nn2C(=O)c2ccccc2Cl)cc1	-16.7%	-14.2%
83	O=C(NCCCN1CCCC1=O)c1cccc(S(=O)(=O)N2CCN(c3ccccc3)CC2)c1	-5.4%	-10.1%
84	CCn1cnc2sc(C(=O)O)c(C)c2c1=O	-10.5%	-15.5%
85	COc1ccc(CCn2c(=N)c(C(=O)NCC3CCCO3)cc3c(=O)n4cccc(C)c4nc32)cc1OC (stereo not drawn)	-12.8%	-16.9%
86	CCOC(=O)c1cc(C)sc1/N=C/C1C(=O)NC(=S)NC1=O	-10.4%	-0.9%
87	CCCNC(=O)c1c(NC(=O)c2ccc(C)cc2)sc2c1CCCCC2	-3.8%	-12.3%
88	Cc1nnc2sc(SCC(=O)Nc3ccc(Cl)cc3)nn2c1=O	-11.1%	-23.1%
89	c1ccc(CCCCN2CCN=C2Nc2ccccc2)cc1	-14.6%	-3.5%
90	CC(C)CCNC(=O)COc1ccc(C(=O)c2ccccc2)cc1	-23.0%	-5.6%
91	Cc1cccc(N2CCN(C(=O)c3c(C)oc4nc(C)nc(N5CCCC5)c34)CC2C)c1 (stereo not drawn)	-12.8%	i
92	O=C(C[n+]1ccc(/C=C/c2ccccc2)cc1)c1ccc2c(c1)OCCO2	-25.4%	-15.0%
93	CC(=O)N/C(=C/c1ccc(OS(=O)(=O)c2ccc(C)cc2)cc1)C(=O)NCCO	-9.9%	-10.7%
94	CC(C)[C@H]1C=C(C(=O)O)O[C@@H](OCc2ccc(CO)cc2)C1	-2.6%	i
95	Cc1ccc(S[C@@H](CCN2CC[C@H](C)CCC2=O)c2ccccc2)cc1	-22.0%&-25.3%	-0.3%
96	CCCCc1nc(Cl)c(C#N)c2c1CCC2	-2.3%	-6.6%
97	Cc1ccc(Cn2c(C3CCCN3c3nc(C)cs3)nc3cc(C(=O)NCCCO)ccc32)cc1 (stereo not drawn)	-8.9%	0.0%
98	COc1cccc(-c2nc(S(=O)(=O)c3ccc(C)cc3)c(NCc3ccccc3)o2)c1	-3.3%	-16.9%
99	CN1C(=O)CSC1=S	-1.9%	0.1%
100	O=C(O/N=C/c1ccc(Cl)cc1)C1CCCCC1	-3.4%	-13.0%
101	O=[N+]([O-])c1ccc(NCCCNS(=O)(=O)c2ccccc2)cc1	-14.8%	-13.0%
102	COc1ccc(NC(=O)CCc2ccccc2)cc1S(=O)(=O)N1CCCCC1	-13.9%	-23.8%
103	COc1ccc(NC(=S)N2CCCN(Cc3cc(C)ccc3C)C2)cc1	6.5%	-21.3%
104	CCOC(=O)c1cccnc1SCC(=O)Nc1ccc(C)cc1C	-17.9%	-4.0%
105	Cc1cc(C)c(Cn2c3ccccc3c3cnn(CC(=O)NCc4ccccn4)c(=O)c32)c(C)c1	-1.8%&-21.8%	-24.2%
106	O=C(NCCCN1CCCC1=O)c1ccc(OC(F)(F)F)cc1	-8.5%	4.3%
107	O=C(CCN1C(=O)/C(=C/c2ccccc2F)SC1=S)Nc1ccccn1	-6.7%	-15.4%
108	COCCCn1cnc2c(c1=O)c1nc3ccccc3nc1n2CCc1ccccc1	-15.5%	i
109	COc1nc(C#N)nc(N(C)C)n1	8.8%	i
